PKD1 kinase inh – PKD1 (human) kinase inhibition | hit rate 0.056% among 200,000 | PKD1 kinase fluorescence polarization assay | Q15139 | inhibition, %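 (about 10 µM by stock and volumes)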;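 active = inhibition of 50% or more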;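 note: controls were vehicle for no effect and a reference inhibitor for full effect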
Target sequence (Q15139 whole entry, looked up): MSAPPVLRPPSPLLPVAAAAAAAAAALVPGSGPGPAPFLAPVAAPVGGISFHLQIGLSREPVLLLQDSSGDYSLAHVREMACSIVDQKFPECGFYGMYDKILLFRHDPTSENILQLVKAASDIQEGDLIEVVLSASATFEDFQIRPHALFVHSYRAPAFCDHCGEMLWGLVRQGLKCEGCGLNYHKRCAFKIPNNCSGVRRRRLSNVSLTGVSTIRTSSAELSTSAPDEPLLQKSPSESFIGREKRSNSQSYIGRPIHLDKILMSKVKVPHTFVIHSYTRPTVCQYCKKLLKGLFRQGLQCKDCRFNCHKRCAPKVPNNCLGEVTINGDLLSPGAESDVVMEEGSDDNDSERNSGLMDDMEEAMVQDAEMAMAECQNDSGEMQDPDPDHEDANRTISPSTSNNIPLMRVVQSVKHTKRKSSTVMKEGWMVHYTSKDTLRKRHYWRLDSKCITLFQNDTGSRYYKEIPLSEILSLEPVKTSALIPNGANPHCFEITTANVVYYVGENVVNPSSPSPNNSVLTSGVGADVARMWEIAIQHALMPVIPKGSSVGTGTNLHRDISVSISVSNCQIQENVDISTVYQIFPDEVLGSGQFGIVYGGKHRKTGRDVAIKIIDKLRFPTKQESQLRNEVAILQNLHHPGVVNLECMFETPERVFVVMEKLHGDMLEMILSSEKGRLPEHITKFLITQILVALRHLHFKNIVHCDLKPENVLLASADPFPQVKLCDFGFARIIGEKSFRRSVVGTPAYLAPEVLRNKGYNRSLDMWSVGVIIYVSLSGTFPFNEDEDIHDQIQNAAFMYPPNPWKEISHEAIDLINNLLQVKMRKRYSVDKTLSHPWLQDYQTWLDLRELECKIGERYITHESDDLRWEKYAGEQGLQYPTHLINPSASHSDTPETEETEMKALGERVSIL
INS promoter inh – TRM-6 insulin promoter activity inhibition; TRM-6 cells (human fetal islet line), insulin promoter-eGFP reporter, imaging; reporter expression induced with tamoxifen; inhibition, % at 2 µM; hit rate 0.9% among 130,000; AID 1273;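 active = inhibition above the mean plus 3 SD, with well images judged a real hit on visual review, cut at about 60% in these data, passing the limit was not always enough; inconclusive = inhibition over the cutoff but images rejected on review; inactive = inhibition not above the cutoff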
HSV augment – HSV replication enhancement | HSV replication augmentation in cells, fold increase | maximum fold increase | hit rate 0.005% among 220,000;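 active = peak rise of 1.5-fold or more in the series; inconclusive = self-fluorescent or not available for retest; tested in PC3 cells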;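 note: first round at 10 µM; read as green reporter fluorescence; hits show the peak of a series up to 25 µM; 1 = signal of infected wells without compound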
RGS16-Gao HTS – modulates binding between human RGS16 and Galphao; AID 1441; bead-based flow cytometry RGS16-Galphao binding, fluorescence; actives lie on both sides; binding response (% of control), % at 10 µM; O15492+P09471; hit rate 0.38% among 220,000;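 active = below 25% or above 175%, edge rows of some plates excepted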;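 note: Galphao activated by GDP with aluminum fluoride before binding; 100% = wells without compound and 0% = beads without RGS; some results beyond the cut were filed as inactive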
GALR2 ag – agonists of human galanin receptor 2 (GALR2). hit rate 0.48% among 140,000. GALR2-expressing cells, agonist activation read-out. O43603. activation, %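 (tested at 5 µM)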;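 active = above mean plus 3 SD of all compounds, about 5% in these data, not always enough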;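 note: 0% = vehicle buffer wells and 100% = reference agonist at full effect; tested in CHO reporter cells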
INS promoter inh cell count – also measured in INS promoter inh; calls as there; normalized cell count, %; measured here: cell count, toxicity; reference of the scale not given here;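 cells exposed to compound for 48 h; stained nuclei by imaging scaled within each plate; lower means fewer cells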
HSV augment primary fold – recorded beside HSV augment, whose call it bears; fold increase; compound at 10 µM; measured here: primary screen fold increase 10 uM; tested in PC3 cells;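 GFP signal in the first replicate; 1 = infected wells without compound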
Starred values were filed as active, the others as inactive; i = inactive; ? = inconclusive; . = no result given; & = joins results of further samples. The order is random, and some 1.3% of all compounds hit somewhere here.

SMILES	PKD1 kinase inh	INS promoter inh	INS promoter inh cell count	HSV augment	HSV augment primary fold	RGS16-Gao HTS	GALR2 ag
COc1ccc(Nc2nc(C(=O)N3CCc4ccccc4C3)cs2)cc1	1	-13	103	i	0.8	107	.
COc1ccc(-c2cc(=O)[nH]c(=S)[nH]2)cc1	-5	.	.	i	0.99	102	.
C/C(=N\NC(=O)c1cccnc1)c1ccc(C)c([N+](=O)[O-])c1	-9	.	.	i	0.87	103	.
O=C(O)CN1C(=O)COc2cc(S(=O)(=O)N3CCCC3)ccc21	-14	.	.	i	0.85	101	0.0
CC(=O)Nc1ccc(C(=O)/C=C/c2ccco2)cc1	2	.	.	i	0.99	92	-0.2
COc1ccc(Cl)cc1NC(=O)C1CSC(c2ccncc2)=N1 (centres undefined)	-3	45	115	i	0.94	89	-1.1
CC(=O)Nc1ccc(NC(=O)Cn2cc3c(n2)CCCC3)cc1	-7	12	90	i	1.1	101	-1.1
COc1ccc(C2CC(=O)Oc3c(C(CCN4CCCCC4)c4ccc(N(C)C)cc4)c(OC)cc(OC)c32)cc1 (centres undefined)	.	.	.	i	0.85	99	.
COc1c(CC=C(C)C)cc(C2CC(=O)c3c(O)cc(O)cc3O2)cc1CC=C(C)C (centres undefined)	.	.	.	i	0.84	98	.
NC1=NC(c2ccc(Br)cc2)n2c(nc3ccccc32)N1 (centres undefined)	3	8	116	i	0.9	105	0.3
CCOc1ccccc1-c1nc(-c2ccc(NC(=O)c3ccc(Br)o3)cc2)no1	-3	-50	128	i	0.86	84	4.4
COc1cc(NC(=O)CN2CCN(S(=O)(=O)c3ccc(C(C)C)cc3)CC2)cc(OC)c1	-4	-40	134	i	0.82	128	-0.3
COc1cccc(CC2(CO)CCN(Cc3cn(C)nc3C)CC2)c1	6	44	98	i	1.3	102	.
COc1cc(C2OC(=O)c3ccccc3S2)cc(OC)c1OC (centres undefined)	.	.	.	i	0.86	103	.
O=C(COc1ccc(Cl)cc1)NC1=NN(c2ccccc2)C(=O)C1	-9	.	.	i	1.2	95	-1.5
N#Cc1ncc(-c2ccc3c(c2)OCCOCCOCCOCCOCCO3)nc1C#N	-4	-123	96	i	0.46	99	0.2
COc1ccccc1CN(Cc1ccco1)S(=O)(=O)c1ccc(-n2cnnn2)c(OC)c1	-2	-34	92	i	0.95	96	-0.2
COCCN(C(=O)Cc1cccs1)C(C(=O)NCc1ccc(OC)cc1)c1ccc(C(C)C)cc1 (centres undefined)	-6	.	.	i	0.94	101	-2.1
O=C1C2=C(c3ccccc31)[N+](=O)[C@@H]1CCCC[C@@H]1N2[O-]	3	.	.	i	0.85	96	-0.1
COC(=O)/C=C1/S/C(=N/NC(=O)c2ccccc2C)NC1=O	-3	-12	226	i	0.82	103	-1.6
CC(C)CN1CC(C(=O)O)CC1=O (centres undefined)	2	.	.	i	0.99	108	.
COc1ccc(CCN2C(=O)CC(Nc3ccc(N4CCOCC4)cc3)C2=O)cc1OC (centres undefined)	-8	-15	107	i	0.87	95	0.0
CCC(CC)C(=O)Nc1cccc(C(=O)NCCc2ccccc2)c1	1	-29	109	i	0.94	107	.
Cc1ccnc(NS(=O)(=O)c2ccc(NC(=O)c3cncc(Br)c3)cc2)n1	10	36	138	i	1	100	-1.5
Cc1cccc(NC(=O)CSc2ccc(-c3cccs3)nn2)c1C	1	-16	83	i	0.91	107	-2.2
CN1CCc2c(sc3nc(SCC(N)=O)n(-c4ccccc4)c(=O)c23)C1	0	-53	92	?	.	116	-1.0
COc1ccccc1NC(=O)Cc1noc(CSc2cc(C)c3ccccc3n2)n1	-4	-20	143	i	0.87	101	-1.3
Cc1nc2cc(C(=O)OCC(=O)NC3CCS(=O)(=O)C3)ccc2n1-c1ccccc1 (centres undefined)	-4	-23	95	i	1	100	-2.2
O=C(O)C1CSC(c2ccco2)N1 (centres undefined)	-2	.	.	i	0.98	116	.
CSc1ncccc1C(=O)NCC12CC3CC(CC(C3)C1)C2	-2	-13	38	i	0.93	101	.
CC1(C)CC(=O)C2=C(C1)N(c1ncn[nH]1)C(N)=C(C#N)C2c1ccccc1 (centres undefined)	4	-37	130	i	1	101	-0.1
O=C(O)c1ccc(Oc2ccc(C(F)(F)F)cn2)cc1	-2	.	.	i	1	100	.
COc1ccc(C)cc1S(=O)(=O)N(CC(=O)O)c1ccc(F)cc1	5	-8	76	i	0.99	100	-1.4
COC(=O)c1ccc(S(=O)(=O)N(C2CCCCC2)C2CCCCC2)n1C	.	.	.	i	1.3	102	.
COC(=O)c1nn(-c2ccccc2)c(Cl)c1/C=N/O	-3	.	.	i	0.85	100	.
CCc1nccn1S(=O)(=O)c1ccc(OC)c(C)c1C	-3	15	149	.	.	92	-4.1
O=C(CNC(=S)N(Cc1ccccc1F)C1CCCCC1)NC1CC1	-3	-60	126	i	1	63	-0.1
CCCCSc1cc(=O)[nH]c(N)n1	.	.	.	i	0.99	103	.
COC(=O)c1ccc2nc(Nc3nc4c(F)cc(F)cc4s3)sc2c1	-6	0	85	i	0.93	106	3.8
Cc1ccc2c(c1)c1c(n2C)C(C(N)=O)CCC1 (centres undefined)	-11	-111	128	i	1	76	-2.6
O=C1CCCCC1c1cccc2ccccc12 (centres undefined)	-17	-58	75	.	.	60	-0.8
O=c1[nH]c2ccc(S(=O)(=O)NCCO)cc2[nH]1	-4	.	.	i	1.1	78	.
O=C(COC(=O)c1cncc(Br)c1)NCCC1=CCCCC1	-7	19	61	i	0.97	84	-3.6
Cc1ccc(S(=O)(=O)C(C#N)c2nc3ccccc3nc2OC(C)C)cc1 (centres undefined)	4	-14	121	i	0.41	100	-2.0
Cc1ccnc(NC(=O)Nc2ccc3c(c2)N(C)C(=O)CS3)c1	-15	-93	121	i	0.8	102	0.1
Cc1cc(C)c(C#N)c(SCc2ccccc2)n1	-6	i	51	i	0.87	80	-2.8
CCc1nnc(NC(=O)C2(C)COC(c3ccc(OC)cc3)OC2)s1 (centres undefined)	-1	0	81	i	1.1	63	.
CC(C)C(=O)OC/C(O)=C(\C#N)c1nc2ccccc2[nH]1	-1	-29	124	i	1.1	102	.
Cc1cccc(-n2cc(-c3ccccc3)c3c(NN4CCOCC4)ncnc32)c1	10	38	79	i	0.99	92	1.9
O=C1CN(C(=O)c2cc(Br)c(Br)s2)c2ccccc2N1	5	-58	93	i	0.88	98	-0.6
CC(C)CCNC(=O)Cc1ccc(Nc2nc(=S)[nH]c3ccccc23)cc1	-4	0	69	i	1	100	.
CC(=O)N1CCCN(Cc2cn(-c3ccc(C)cc3)nc2-c2ccc(F)cc2)CC1	-7	.	.	i	0.9	102	.
N#Cc1c(-c2ccccc2Cl)cc(-c2ccccc2)[nH]c1=S	-5	.	.	i	1.1	94	.
COC(=O)c1ccccc1NC(=O)CSc1nccn1C	-6	.	.	i	0.93	81	-3.4
CCCC(C)NC(C)C(=O)NC1CCCC1 (centres undefined)	2	.	.	i	1	101	0.0
Cc1cc(C)nc(/N=C(\N)Nc2ccc(C)c([N+](=O)[O-])c2)n1	6	.	.	i	0.92	112	-2.0
Cc1nc2ccc([N+](=O)[O-])cc2nc1C	4	13	85	i	0.89	107	.
O=C(COC(=O)CNS(=O)(=O)/C=C/c1ccccc1)Nc1cccc2ccccc12	-5	40	109	i	0.93	101	.
Cc1cc(/C=C2/SC(=O)NC2=O)c(C)n1-c1ccc(N2CCOCC2)cc1	-13	39	142	i	1.1	104	-1.7
COc1ccccc1NC(=O)N(Cc1ccccc1)c1ccccn1	-7	-5	133	i	1	102	0.3

Look-ups from the results shown:
Cc1cc(/C=C2/SC(=O)NC2=O)c(C)n1-c1ccc(N2CCOCC2)cc1 – RGS16-Gao HTS: 104
Cc1ccnc(NC(=O)Nc2ccc3c(c2)N(C)C(=O)CS3)c1 – PKD1 kinase inh: -15
Cc1nc2ccc([N+](=O)[O-])cc2nc1C – HSV augment primary fold: 0.89
O=C(COC(=O)CNS(=O)(=O)/C=C/c1ccccc1)Nc1cccc2ccccc12 – RGS16-Gao HTS: 101
Cc1cc(C)nc(/N=C(\N)Nc2ccc(C)c([N+](=O)[O-])c2)n1 – GALR2 ag: -2.0
COc1ccccc1NC(=O)N(Cc1ccccc1)c1ccccn1 – GALR2 ag: 0.3

The list continues.
SMILES	PKD1 kinase inh	INS promoter inh	INS promoter inh cell count	HSV augment	HSV augment primary fold	RGS16-Gao HTS	GALR2 ag
O=C(N/N=C/c1cc(Cl)cc([N+](=O)[O-])c1O)C1CC1	.	.	.	i	0.98	109	.
O=C(O)/C=C/c1nc(-c2ccccc2)n2ccccc12	-2	.	.	i	0.99	97	-0.8
CCO[C@@H]1OC(C(=O)O)=C[C@H](C)[C@H]1CCCO	13	.	.	i	0.8	105	.
CN=C1S/C(=C\c2cn(CC(=O)OC)c3ccccc23)C(=O)N1C	-2	0	75	i	0.92	93	.
CCOC(=O)C1CCN(C(=O)COC(=O)COc2ccc(Cl)cc2)CC1	2	.	.	i	1	98	.
O=c1ccc(NS(=O)(=O)c2ccccc2Cl)cn1Cc1ccc(Cl)c(Cl)c1	-2	.	.	i	0.89	102	.
CC(C)Cn1nc(C(=O)OCC(=O)NCC(F)(F)F)c2ccccc2c1=O	-1	-71	84	i	1	100	.
CCOc1c(Br)cc(/C=C2\C(=O)N(CCC#N)N=C2C)cc1OC	-5	14	64	i	0.84	86	-0.9
O=C(CSc1nc2ccccc2n1CC(=O)N1CCCC1)N1CCN(C(=O)c2ccco2)CC1	3	24	98	i	0.84	102	-2.5
COc1ccc(-c2ccc(CCC(=O)O)n2NC(=O)c2cccs2)cc1	-10	47	110	i	0.9	104	-6.0
COc1ccc(C(=O)Nc2cccc(C(C)=O)c2)cc1OC	-4	15	112	i	0.98	97	-1.9
Cc1ccc2nc(NCCCO)[nH]c2c1	-4	78*	120*	i	1.1	100	-2.0
CCCCn1c(N)c(N(CCOC)C(=O)COc2ccc(Cl)cc2)c(=O)[nH]c1=O	1	.	.	i	1	101	.
CCC(C)c1ccc(O)c(NC(=O)c2cccnc2)c1 (centres undefined)	2	.	.	i	0.94	100	0.2
CN1CCc2c(sc(N)c2C(N)=O)C1	-5	41	94	i	0.99	102	0.0
Cc1cccc(CSCCNC(=O)Nc2ccccc2)c1	5	-3	78	i	0.91	169	-0.4
COCCN(CCOC)S(=O)(=O)c1ccc(C(=O)Nc2nc(-c3ccccc3)c(C(=O)c3ccccc3)s2)cc1	-12	-10	90	i	0.98	98	-0.5
Cc1ccccc1NC(=O)CCC(=O)OCC(=O)c1cccc([N+](=O)[O-])c1	-6	.	.	i	0.88	103	.
COC(=O)C(CC(C)C)NC(=O)C(Cc1ccccc1)NC(=O)C1CCCN1C(=O)OC(C)(C)C (centres undefined)	1	.	.	i	0.98	104	.
Cc1oc(-c2cccc(Cl)c2)nc1CN(C)C1CCOC1 (centres undefined)	-1	-29	127	i	0.99	105	.

Fetched one by one from the list above, 2 records:
SMILES	PKD1 kinase inh	INS promoter inh	INS promoter inh cell count	HSV augment	HSV augment primary fold	RGS16-Gao HTS	GALR2 ag
Cc1ccc2nc(NCCCO)[nH]c2c1	-4	78*	120*	i	1.1	100	-2.0
COc1ccc(-c2ccc(CCC(=O)O)n2NC(=O)c2cccs2)cc1	-10	47	110	i	0.9	104	-6.0

Following part.
SMILES	PKD1 kinase inh	INS promoter inh	INS promoter inh cell count	HSV augment	HSV augment primary fold	RGS16-Gao HTS	GALR2 ag
Oc1ccc(Cl)cc1C1=Nc2ccccc2N=C(c2ccco2)C1	-7	-311	90	i	0.99	109	-0.9
CSc1nc(-c2ccco2)nn1C(=O)c1ccc(Cl)cc1	3	.	.	.	.	91	0.0
Cc1cc(=O)n2[nH]c(-c3ccc(C(C)(C)C)cc3)cc2n1	-1	-36	41	i	0.83&0.79	94&92	-3.0
COc1cc(C2NC(=O)CS2)cc(OC)c1OC (centres undefined)	-9	-19	102	i	1	96	-1.6
COC(=O)c1cn(CC(=O)NCc2cccs2)c2ccccc12	-9	14	25	i	0.99	101	-2.2
Cc1ccc(S(=O)(=O)N(CC(=O)NCCSCc2ccco2)c2ccc(F)cc2)cc1	-2	.	.	i	1.2	100	.
CCN(CC(=O)Nc1ccc2c(c1)OCCO2)S(=O)(=O)c1ccc(C)cc1	2	-43	93	i	1.2	97	-0.6
CCn1c(=O)c2cc(C(=O)Nc3cc(C)on3)sc2c2ccccc21	-5	.	.	.	.	103	-1.6
Cc1[nH]nc2c1/C(=N/O)CC(c1ccccc1)C2 (centres undefined)	1	12	148	i	0.93	122	-1.2
Cc1cc(C)c(S(=O)(=O)N2CCN(CCO)CC2)c(C)c1	-4	.	.	i	1.1	104	-1.8
CC(C)(C)C(=O)CN1CCN(S(=O)(=O)c2ccc(F)cc2)CC1	-4	-9	74	i	0.93	101	-0.1

Screens from PubChem BioAssay.
